Screening results from PubChem BioAssay.
HCMV NEC inh = cytomegalovirus nuclear egress complex inhibition; HTRF UL50-UL53 interaction, normalized percent inhibition; inhibition, % (concentration not given with the values); 0.15% of 190,000 active; AID 1918969;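 active = both replicates at 50% or more, plus weaker picks with an unusually low signal ratio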;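 also: stock transfer was 100 nL into about 20 µL; 0% = negative control wells and 100% = wells with untagged competitor protein; inactives centre near -12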
Sa growth inh = S. aureus growth inhibition; relative growth, % (concentration not given with the values); S. aureus RN4220 growth, OD600, 20 h, 42 °C; hits give low values; 0.53% of 170,000 active;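 active = growth at 42 °C up to 50% and 20 or more points under that at 30 °C, or under 10% at both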;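 also: 300 nL library stock went into each well; scaled to the means of positive and negative controls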
GIV-Gai inh = inhibitors of GIV GBA-motif binding to rat Galpha-i3; P08753; Galpha-i3/FITC-GIV peptide fluorescence polarization, 90 min; hits give low values; scaled: aluminum fluoride 0%, vehicle 100%; percent of control (FP), % (test concentration not listed); 0.42% of 210,000 active; AID 1224905;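 active = replicate mean at 85% of control or lower, very high polarization wells dropped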;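 also: wells of about 15 µL received 100 nL stock; the first replicate is given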
Target sequence (P08753 whole entry, looked up): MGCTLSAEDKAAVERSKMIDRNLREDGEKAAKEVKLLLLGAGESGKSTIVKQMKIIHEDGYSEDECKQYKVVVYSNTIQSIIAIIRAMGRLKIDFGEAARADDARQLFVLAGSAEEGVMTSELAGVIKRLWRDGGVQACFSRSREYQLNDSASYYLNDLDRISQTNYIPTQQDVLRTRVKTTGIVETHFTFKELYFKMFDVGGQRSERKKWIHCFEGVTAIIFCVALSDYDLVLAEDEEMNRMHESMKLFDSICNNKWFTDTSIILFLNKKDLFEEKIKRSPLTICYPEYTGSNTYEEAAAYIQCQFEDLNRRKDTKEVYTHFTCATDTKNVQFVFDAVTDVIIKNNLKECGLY
Sa growth inh second temp = second read-out of Sa growth inh, no call of its own (marks repeat the call); relative growth, %; measured here: growth at 30 °C;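 optical density after 20 h as mean of two plates; 100% = untreated growth and lower means inhibition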
Starred values were filed as active, the others as inactive; / = not tested or not shown; & = joins results of further samples.

SMILES	HCMV NEC inh	Sa growth inh	Sa growth inh second temp	GIV-Gai inh
COc1ccc(-c2csc3nc(-c4ccccc4F)oc(=O)c23)cc1	-9	/	/	103
CCCn1c(CCC(=O)NC2=NCCS2)nc2cc(S(=O)(=O)N(CC)CC)ccc21	9	90	85	/
COc1ccc(C(CNC(=O)c2ccccc2Br)c2c[nH]c3ccccc23)cc1 (stereo not given)	-14	/	/	99
C(=N\n1c(-c2ccco2)csc1=NCc1ccccc1)/c1cccnc1	-9	81	89	/
N#CC(CN1CCOCC1)CN1CCOCC1	-10	94	84	104
CN(CC(=O)O)S(=O)(=O)c1ccc(Br)cc1	-5	101	97	/
COc1cccc(-c2nc(S(=O)(=O)c3ccccc3)c(NCc3ccccc3)o2)c1	-9	112	89	102
N#C/C(=C\NN1CCOCC1)S(=O)(=O)c1cc(C(F)(F)F)cc(C(F)(F)F)c1	-8	78	85	103
CN(Cc1cccs1)C(=O)c1cccc(C#N)c1	-23	102	99	/
CCCSc1nn(CC)c2nc3c(c(=O)n12)C(C)(C)Cc1ccccc1-3	-31	/	/	106
O=C(Nc1nnc(-c2ccc3c(c2)CCCC3)o1)C1CC1	-14	14	15	109
COc1cc(-c2nnc(SCCSC)o2)cc(OC)c1OC	-26	96	89	/
O=C1COc2ccc(C(=O)COC(=O)COc3ccc4c(c3)CCC4)cc2N1	-8	86	88	/
COc1ccc(S(=O)(=O)N(CC(=O)Nc2cc(C)ccc2OC)Cc2ccccc2)cc1	-66	86	85	101
COC(=O)C1CCN(C(=O)Nc2ccccc2)CC1	-11	83	98	105
COc1cc2c3nnc(-c4ccccc4)c-3cn(Cc3ccccc3)c2cc1OC	-26	/	/	111
Cc1nc2ccccc2c(=O)n1-c1cccc(NC(=O)C2CC2)c1	1	105	99	104
COc1ccccc1NC(=O)Cn1cc(C(=O)c2ccncc2)c(=O)c2cc(C)ccc21	/	99	99	109
COc1cccc(C(=O)Nc2ccc(C(=O)OCc3cc(=O)n4cc(C)sc4n3)cc2)c1	/	73	84	95
COc1ccc(-c2cc(OC(=O)c3cccc(C)c3)c3c(C)oc(C)c3c(=O)c2)cc1OC	-35	/	/	117
O=C(COC(=O)C1CC(=O)N(Cc2ccco2)C1)Nc1cccc2nsnc12 (stereo not given)	-16	94	100	/
Cn1c(=O)c2ccc(C(=O)NC3CCCC3)cc2n2c(=O)n(CC(=O)c3ccc(F)cc3)nc12	-7	/	/	106
CSCCC(C(=O)NC1=NCCS1)N1C(=O)c2ccccc2C1=O (stereo not given)	-10	89	90	/
CCOc1ccc(CCNC(=O)c2cc(C)[nH]n2)cc1OCC	-24	121	82	102
COc1ccc(CN2CN(C(C)C)CSC2=S)cc1	-23	62	1	97
(listing goes on)
SMILES	HCMV NEC inh	Sa growth inh	Sa growth inh second temp	GIV-Gai inh
O=C(N/N=C/c1ccc(F)cc1)c1ccc(CN2CCOCC2)cc1	-37	87	94	/
CCOC(=O)c1cc(OC(=O)c2cc(OC)cc(OC)c2)n(-c2ccccc2)n1	-18	84	83	99
Cc1cccc(C(=O)NC2(C(F)(F)F)N=C(c3ccccc3)N(C3CCCCC3)C2=O)c1 (stereo not given)	-16	82	84	106
CCOc1cc(C2C(C#N)=C(N)Oc3n[nH]c(-c4ccc([N+](=O)[O-])cc4)c32)ccc1OC (stereo not given)	-27	/	/	106
CC(C)CCNC(=O)C1CC(=O)N(c2ccccc2)C1 (stereo not given)	-15	87	84	99
Cc1ccc(Cl)cc1N1CCN(C(=O)CN2C(=O)COc3ccc(S(=O)(=O)N4CCC(C)CC4)cc32)CC1	-26	110	90	101
O=C(OCc1c(F)cccc1Cl)c1cc[n+]([O-])cc1	-29	110	93	/
Cc1ccc(S(=O)(=O)NC(=O)NN2CCCCCC2)cc1	-37&-31&-6&-8&-20&-2	89&93	90&89	103&111
COc1ccc(NC(=O)Cn2c(=O)n(-c3ccc(C)cc3)c(=O)c3ccccc32)cc1	-29	/	/	102
CCCCC1NC(=S)N(C2CCCCC2)C1=O (stereo not given)	-25	85	77	100
CCN(c1ccccc1)S(=O)(=O)c1cc(C(=O)N2CCCN(C)CC2)ccc1C	-7	87	98	/
O=C(CSc1ccc2c(c1)CCC2)N1CCNC1=O	-7	100	95	/
O=C1CCS(=O)(=O)N1c1ccc(S(=O)(=O)Nc2ccc(Cl)cc2)cc1	-33	/	/	108
COc1ccc(Br)cc1CNC(=O)c1nn(-c2ccc(C)cc2)c(=O)c2c1c1ccccc1n2C	2	104	108	99
CC(C)(C)OC(=O)N1CCCN(C(=O)Nc2ccc(F)cc2F)CC1	-10	95	87	106
COC(=O)c1ccccc1S(=O)(=O)N1CCC(C(=O)OCN2C(=O)c3ccccc3C2=O)CC1	-33	90	93	/
COc1ccc(Cc2nnc(SC(C)C(=O)Nc3ccc4c(c3)OCO4)n2C)cc1 (stereo not given)	/	87	85	101
CCOC(=O)c1c(C)[nH]c(CCC(=O)Nc2c(Cl)cc(OC)cc2OC)c1C	/	87	80	109
CCc1ccc(C2c3c(-c4ccccc4O)n[nH]c3C(=O)N2Cc2ccncc2)cc1 (stereo not given)	2	96	96	105
Cc1nc2ccccc2c2oc(C(=O)NC3CCCC3)cc12	/	93	71	106
Cc1ccc(S(=O)(=O)N2CCN(C(=O)COC(=O)/C=C/c3ccc(C)o3)CC2)c(C)c1	-12	93	99	/
CC1=NN(c2cccc(C(=O)O)c2)C(=O)/C1=C/c1ccc(-c2cccc(Cl)c2C)o1	/	111	86	114
Cc1ccc(NC(=O)CCN2C(=O)c3ccccc3Sc3ncccc32)cc1	/	107	83	98
CCOc1ccc(S(=O)(=O)c2c[nH]c3ccccc3c2=O)cc1	-12	94	72	103
CN1C(=O)c2cc(NC(=O)CN3C(=O)c4ccccc4C3=O)ccc2Oc2ccccc21	4	/	/	104

Some values from the list:
CCOC(=O)c1cc(OC(=O)c2cc(OC)cc(OC)c2)n(-c2ccccc2)n1 @ Sa growth inh: 84
CCOc1ccc(S(=O)(=O)c2c[nH]c3ccccc3c2=O)cc1 @ HCMV NEC inh: -12
COc1ccc(-c2csc3nc(-c4ccccc4F)oc(=O)c23)cc1 @ HCMV NEC inh: -9
CN(Cc1cccs1)C(=O)c1cccc(C#N)c1 @ Sa growth inh second temp: 99

Other records follow.
SMILES	HCMV NEC inh	Sa growth inh	Sa growth inh second temp	GIV-Gai inh
CC(C)N=C(NS(=O)(=O)c1cccs1)c1ccccc1	/	114	85	107
CCc1ccc(Sc2cc(C(=O)NCCCOC(C)C)c3ccccc3n2)cc1	/	110	96	100
CNc1sc(S(C)(=O)=O)nc1S(=O)(=O)c1ccc(C)cc1	/	91	90	105
COc1ccc(CN(Cc2ccncc2)C(=O)CCC(=O)O)cc1	-21	126	84	101
CC1Cc2cc(-c3nn(-c4ccccc4)cc3/C=c3\sc4nc(-c5cccs5)nn4c3=O)ccc2O1 (stereo not given)	-11	99	91	124
CC1(C)NC(=O)N(CCSc2ccc(Cl)cc2)C1=O	-7	107	84	100
CC(=O)Oc1ccccc1OCC(=O)c1ccccc1	-12	107	94	/
CC1(C)CC(=O)C(CC(=O)N2CCN(S(=O)(=O)c3ccccc3)CC2)C(=O)C1	15	104	92	/
COC(=O)c1ccc(NC(=O)CC2Nc3cc(C)c(C)cc3NC2=O)cc1 (stereo not given)	-34	108	87	105
COC(=O)c1ccc2c(c1)no[n+]2[O-]	-104	81	63	/
COc1cc(SC)ccc1C(=O)N1CCCC(C)C1 (stereo not given)	-26	115	82	97
Cc1oc2c(F)c(F)c(F)c(F)c2c1C(N)=O	0	105	85	100
CCn1c(C)c(CCC(=O)NCCCc2ccccc2)c(=O)n2nc(-c3ccccc3OC)cc12	/	90	88	103
CCOC(=O)c1cc2ccccc2n1C	/	106	90	103
Cc1ccc(OCc2n[nH]c(=S)n2-c2ccccc2)cc1C	-3	65	76	/
N#CC1=C(N)SC(N)=C(C#N)C1c1cc2c(cc1Cl)OCO2	-26	100	58	-0.4*
O=C(Cn1c(=O)n(CC(=O)NC2CCCC2)c(=O)c2ccccc21)Nc1ccccc1	-23	/	/	104
COc1ccc(Cc2nnn(CC(=O)O)n2)cc1	-19	89	84	99
O=C(Nc1ccccc1CO)c1ccc(N2C(=O)C3C4C=CC(C4)C3C2=O)cc1 (stereo not given)	-16	94	85	99
COc1ccccc1C1N(c2ccc(Cl)cc2)C(=O)N2CCCN12 (stereo not given)	/	84	75	100
CN(Cc1ccccc1)C(=O)C1CCCN(Cc2cc(Br)ccc2O)C1 (stereo not given)	-15	92	88	102
Cc1ccc(C)c(Cn2c(C(C)O)nc3ccccc32)c1 (stereo not given)	-28	/	/	101
O=C(Nc1cccnc1)OCCN1CCOC1=O	15	84	93	102
CCOC(=O)c1c(NC(C)=O)c2c3c(sc2n1Cc1cccc(Cl)c1)CCCC3	-16	108	93	105
COc1ccc(C2=NN(CCC(=O)NC3CC3)C(=O)CC2)cc1	/	127	90	104

Part of the list above, bar-delimited.
SMILES | HCMV NEC inh | Sa growth inh | Sa growth inh second temp | GIV-Gai inh
CC(C)(C)OC(=O)N1CCCN(C(=O)Nc2ccc(F)cc2F)CC1 | -10 | 95 | 87 | 106
COC(=O)c1ccccc1S(=O)(=O)N1CCC(C(=O)OCN2C(=O)c3ccccc3C2=O)CC1 | -33 | 90 | 93 | /
COc1ccc(Cc2nnc(SC(C)C(=O)Nc3ccc4c(c3)OCO4)n2C)cc1 (stereo not given) | / | 87 | 85 | 101

A different layout for part of the listing above.
> O=C(Cn1c(=O)n(CC(=O)NC2CCCC2)c(=O)c2ccccc21)Nc1ccccc1
  HCMV NEC inh: -23
  Sa growth inh: /
  Sa growth inh second temp: /
  GIV-Gai inh: 104
> COc1ccc(Cc2nnn(CC(=O)O)n2)cc1
  HCMV NEC inh: -19
  Sa growth inh: 89
  Sa growth inh second temp: 84
  GIV-Gai inh: 99
> O=C(Nc1ccccc1CO)c1ccc(N2C(=O)C3C4C=CC(C4)C3C2=O)cc1 (stereo not given)
  HCMV NEC inh: -16
  Sa growth inh: 94
  Sa growth inh second temp: 85
  GIV-Gai inh: 99

Next compounds
SMILES	HCMV NEC inh	Sa growth inh	Sa growth inh second temp	GIV-Gai inh
Cc1c(N(C(=O)CNC(=O)c2ccccc2)C2(C(=O)NC3CCCC3)CCCCC2)c(=O)n(-c2ccccc2)n1C	-8	/	/	97
CCc1ccc(/C=C2/SC(=S)N(CCC(=O)O)C2=O)cc1	-81	/	/	101
Cc1cc(C)n2nc(Cc3ccccc3)nc2n1	-26	80	76	96&100
COc1ccccc1-c1nn(-c2ccc(C(F)(F)F)cn2)c(=O)o1	-16	99	92	106
CC(=O)N1CCN(C(=O)CCc2nc3ccccc3c(=O)[nH]2)CC1	-15	110	88	/
CC(C)(C)c1ccc(-c2nc3sc4c(c3c(=O)o2)CCCC4)cc1	-26	/	/	103
Cc1cccc(C(=O)NCC(c2ccc3c(c2)OCO3)N2CCN(c3ccccc3F)CC2)c1 (stereo not given)	/	86	90	98
O=S(=O)(c1cc(F)ccc1F)N1CCN(c2cc(-c3ccc(F)cc3)ncn2)CC1	-15	/	/	97
N/C(=N\O)c1ccc(F)cc1	-30	74	91	/
CCSc1nccn2nc(-c3ccc(C)cc3C)cc12	-15	/	/	102
C=CCN1CC(O)=C(c2nc3ccccc3[nH]2)C1=N	/	85	85	104
CO[C@H]1O[C@H](COC(=O)c2ccccc2)[C@@H](O)[C@H](O)[C@H]1OC(=O)c1ccccc1	-48	99	83	98
COc1ccccc1N(CC(=O)NCCSCc1ccccc1Cl)S(C)(=O)=O	-35	92	85	104
O=C(CSC1CCS(=O)(=O)C1)Nc1ccccc1-c1ccccc1 (stereo not given)	0	97	92	96
C(=N\N1CCN(c2ccccn2)CC1)/C1=C(N2CCOCC2)C(=C/c2ccccc2)/CC1	18	99	102	/
Cc1ccc(-c2nc3scc(CCNS(=O)(=O)c4ccc(F)c(C)c4)n3n2)cc1	/	144	103	102
CN1CCN(/C(=C\C#N)c2ccc(F)cc2)CC1	-6	79	89	/
C=CCN1C(=O)C2(c3ccccc31)c1c(oc3ccccc3c1=O)C(=O)N2CCOC (stereo not given)	-12	114	95	107
CCc1ccc(-n2c(SCc3cccc(F)c3)nc3[nH]ncc3c2=O)cc1	/	46	59	100
CCCCn1cnc2c(sc3nc4c(cc32)COC(C)(C)C4)c1=O	-18	76	88	106
CN(c1ccc(Br)cc1)c1nc(=O)c2cccnc2s1	0	94	91	100
CC(OC(=O)c1ccc(S(=O)(=O)C(F)F)cc1)C(N)=O (stereo not given)	-23	70	84	/
O=C(CSc1ncn[nH]1)c1cccs1	/	105	87	102
CN(CCNC(=O)c1cc2c(s1)-c1ccccc1OC2)C1CCCCC1	-4	104	96	104
c1ccc(-n2cnnc2SCc2cn3ccccc3n2)cc1	-19	82	91	/
Next section:
SMILES	HCMV NEC inh	Sa growth inh	Sa growth inh second temp	GIV-Gai inh
COc1ccc(Cl)cc1C(=O)NCC(c1ccc(N(C)C)cc1)N1CCOCC1 (stereo not given)	/	94	89	99
CN1CCN(c2nc3c(c(=O)n(C)c(=O)n3C)n2Cc2ccc(Cl)c(Cl)c2)CC1	7	/	/	107
Cc1ccccc1-n1c(O)c(C2=c3cc(Br)ccc3=NC2=O)sc1=S	0	/	/	106
Oc1ccccc1C=Nc1n[nH]c2ccccc12	-10	101	86	99
NC(=O)C1CCN(C(=O)OCC(F)(F)F)CC1	-9	94	88	/
Cc1ccc(-c2cn3nc(N4CCCC(C(=O)O)C4)sc3n2)cc1 (stereo not given)	/	99	87	97
CCOC(=O)Cn1nc(C(F)(F)F)cc1C	-3	76	94	/
Cc1ccc(CCNC(=O)CN2C(=O)COc3ccc(S(=O)(=O)N4CCCCC4)cc32)cc1	/	123	79	111
